Sa RN4220 lethal: S. aureus RN4220 growth inhibition. OD600, 16 h. inhibition, % (test concentration not listed). hit rate 0.33% among 330,000;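 active = z-score of -3 or lower and OD600 up to 0.18 on both plates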;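 also: plate controls were untreated cells for no effect and reference antibiotic for full effect; stock transfer was 100 nL into about 80 µL; one replicate is shown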
ugtP null kill: kills S. aureus RN4220 lacking UgtP | growth inhibition, % (concentration not given with the values) | hit rate 0.54% among 330,000 | AID 1259309 | S. aureus RN4220 ugtP deletion, OD600 growth, 16 h; some inactives read as strong as hits;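 active = z-score under -3 and OD600 up to 0.15 on both plates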;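 also: plate controls were untreated wells for no effect and antibiotic for full effect; wells of about 80 µL received 100 nL stock; the first replicate is given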
Autofluor counter: counter-screen for toxin protease inhibitors: compound fluorescence | fluorescence intensity (no concentration beside the values) | compound autofluorescence counterscreen, microsphere flow cytometry; stronger effect = higher value | hit rate 3.1% among 360,000 | AID 624483;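 active = at least 3 SD above the mean of all compounds, about 16000 in these data; inconclusive = too few beads counted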;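 also: 100 nL of 1 mM stock went into each well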
Mtb hypoxia inh: Mtb hypoxia fluorescent reporter inhibition | M. tuberculosis hypoxia-regulated fluorescent reporter, fluorescence | fluorescence inhibition, % (no concentration beside the values) | hit rate 0.1% among 300,000 | AID 1159583;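 active = 35 to 45% if threefold the growth effect, above 45% if 1.5-fold the growth effect; inactive = the rest, general growth blockers included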;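 also: wells of about 50 µL received 100 nL stock; 0% = vehicle wells and 100% = reference inhibitor wells; whole bacteria with a GFP reporter of the hypoxia response; strong numbers were not always called active; many hits fall short of the cut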
PrP UTR inh: suppresses PrP 5' UTR mRNA reporter expression; hit rate 0.35% among 340,000; inhibition, % (no concentration beside the values); cell-based PrP 5' UTR mRNA reporter, plate reader;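 active = every replicate at 50% or more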;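 also: 0 = median of the neutral control wells; tested in H4 reporter cells; numbers are from one replicate; inactives centre near -14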
BJeLR viability: BJeLR cell viability loss; BJeLR (HRASV12) viability, CellTiter-Glo ATP luminescence, 48 h; reference of the scale not given here; inhibition, % (test concentration not listed); hit rate 0.17% among 300,000;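 active = replicate mean above 50%; inconclusive = above 50% but judged a plate artefact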;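 also: 50 nL library stock added to about 25 µL; numbers are from one replicate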
Mtb hypoxia inh growth: second read-out of Mtb hypoxia inh, no call of its own (marks repeat the call); growth inhibition, %; measured here: M. tuberculosis growth (absorbance);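 0% = vehicle and 100% = reference antibiotic; read after six days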
Active calls of the source: *. Compounds were not picked by outcome; about 4% have a hit in one of these screens.

The first 2 records, to show the layout:
`COCCNCC(=O)NC12CC3CC(CC(C3)C1)C2` gave Sa RN4220 lethal 1.1, ugtP null kill 5, Autofluor counter 3919, PrP UTR inh -7 and BJeLR viability -4.
Screening Cc1nnc(Nc2ccccc2)n(N)c1=O returned Sa RN4220 lethal 6.5, ugtP null kill 12, Autofluor counter 3565, Mtb hypoxia inh 4, PrP UTR inh 2, BJeLR viability -3 and Mtb hypoxia inh growth 9.

Main list, from the start:
`COCCNCC(=O)NC12CC3CC(CC(C3)C1)C2` gave Sa RN4220 lethal 1.1, ugtP null kill 5, Autofluor counter 3919, PrP UTR inh -7 and BJeLR viability -4.
Screening Cc1nnc(Nc2ccccc2)n(N)c1=O returned Sa RN4220 lethal 6.5, ugtP null kill 12, Autofluor counter 3565, Mtb hypoxia inh 4, PrP UTR inh 2, BJeLR viability -3 and Mtb hypoxia inh growth 9.
`COc1cc(N=c2ssnc2Cl)cc(OC)c1OC` gave Sa RN4220 lethal 3.6, ugtP null kill -3, Autofluor counter 3732, PrP UTR inh -6 and BJeLR viability -2.
`CCN(CC)CCN(C(=O)CCOc1ccccc1)c1nc2ccc(F)cc2s1` gave Sa RN4220 lethal 0.3, ugtP null kill 5, Autofluor counter 4504, Mtb hypoxia inh 15, PrP UTR inh -14, BJeLR viability 1 and Mtb hypoxia inh growth 13.
Screening Cc1onc(-c2c(Cl)cccc2Cl)c1/C(N)=N/OC(=O)C1CC1 returned Sa RN4220 lethal 0.6, ugtP null kill 6, Autofluor counter 3358, Mtb hypoxia inh 2, PrP UTR inh 0, BJeLR viability -12 and Mtb hypoxia inh growth 16.
Screening COc1nc2ccccc2nc1CCC(=O)O returned Sa RN4220 lethal 2.0, ugtP null kill 2, Autofluor counter 4566, Mtb hypoxia inh -16, PrP UTR inh -13, BJeLR viability -2 and Mtb hypoxia inh growth -9.
Screening Cc1sc(NC(=O)Cn2[nH]c(=O)c3ccccc3c2=O)nc1-c1ccccc1 returned Sa RN4220 lethal 12, ugtP null kill 0, Autofluor counter 3253, Mtb hypoxia inh -3, PrP UTR inh -11, BJeLR viability 9 and Mtb hypoxia inh growth 9.
For CN(C)S(=O)(=O)N1C(=O)c2ccccc2C1=O the results were Sa RN4220 lethal 3.3, ugtP null kill 8, Autofluor counter 3942, Mtb hypoxia inh 9, PrP UTR inh -19, BJeLR viability 10 and Mtb hypoxia inh growth 5.
`N#Cc1nc(-c2ccco2)oc1N1CCN(c2ccccc2)CC1` gave Sa RN4220 lethal -9.4, ugtP null kill -11, Autofluor counter 3193, Mtb hypoxia inh 14, PrP UTR inh -12, BJeLR viability -3 and Mtb hypoxia inh growth 10.
For COc1ccc(/C=C/C(=O)OCC(=O)Nc2ccc(OC)c(S(=O)(=O)N3CCCCC3)c2)cc1 the results were Sa RN4220 lethal 1.6, ugtP null kill 7, Autofluor counter 7648, Mtb hypoxia inh 9, PrP UTR inh -6, BJeLR viability -23 and Mtb hypoxia inh growth 3.
Screening NC(=NCc1ccco1)NC(=O)c1ccccc1 returned Sa RN4220 lethal 0.6, ugtP null kill -8, Autofluor counter 5840, Mtb hypoxia inh 1, PrP UTR inh -13, BJeLR viability 4 and Mtb hypoxia inh growth 7.
CN(C)c1ccc(/C=N/n2c(C3CCCCC3)n[nH]c2=S)cc1 was read as Autofluor counter 3101, PrP UTR inh -5 and BJeLR viability 13.
For O=C(O/N=C1\CCS(=O)(=O)c2sccc21)c1ccccc1 the results were Autofluor counter 2560, PrP UTR inh -1 and BJeLR viability -10.
CC(C)(C)C1CCc2onc(C(=O)Nc3cccnc3)c2C1 (stereo unspecified) was read as Sa RN4220 lethal 1.7, ugtP null kill -8, Autofluor counter 8132, Mtb hypoxia inh 0, PrP UTR inh -6, BJeLR viability -13 and Mtb hypoxia inh growth 1.
For COC(=O)CCC(=O)Nc1sc2c(c1C#N)CCCC2 the results were Sa RN4220 lethal 2.2, ugtP null kill 11, Autofluor counter 4153, PrP UTR inh -21 and BJeLR viability -1.
`COC(=O)C1=C(C)OC(N)=C(C#N)C1c1ccccc1F` (stereo unspecified) gave Sa RN4220 lethal 6.6, ugtP null kill -6, Autofluor counter 10345, Mtb hypoxia inh -4, PrP UTR inh -14, BJeLR viability 1 and Mtb hypoxia inh growth -1.
`Cc1ccc2nc(-c3sc4nc(C)ccc4c3N)[nH]c2c1` gave Sa RN4220 lethal 10, ugtP null kill -16, Autofluor counter 9567, Mtb hypoxia inh 21, PrP UTR inh -41, BJeLR viability -2 and Mtb hypoxia inh growth 9.
`COc1cc(CCC(=O)OCC(=O)Nc2cccc(S(N)(=O)=O)c2)cc(OC)c1OC` gave Sa RN4220 lethal 2.2, ugtP null kill 6, Autofluor counter 2217, Mtb hypoxia inh 11, PrP UTR inh -27, BJeLR viability -3 and Mtb hypoxia inh growth 1.
Fc1ccc(-n2nnc(-c3ccccc3Br)n2)cc1 was read as Sa RN4220 lethal 4.3, ugtP null kill 17, Autofluor counter 3508, Mtb hypoxia inh 5, PrP UTR inh -10, BJeLR viability -5 and Mtb hypoxia inh growth -2.
For COc1ccc(N2C(=O)CCC(C(=O)NCCCN3CCC(C)CC3)C2c2ccc(OC)c(OC)c2)cc1 (stereo unspecified) the results were Sa RN4220 lethal 1.7, ugtP null kill 2, Autofluor counter 4821, Mtb hypoxia inh 3, PrP UTR inh -20, BJeLR viability 1 and Mtb hypoxia inh growth -7.
Screening O=C(CN1CCC(n2nnc3cc(F)ccc32)CC1)NNC(=O)c1ccccc1 returned Sa RN4220 lethal 0.8, ugtP null kill 8, Autofluor counter 10588, Mtb hypoxia inh 17, PrP UTR inh -62, BJeLR viability 0 and Mtb hypoxia inh growth 2.
Screening Cc1cccnc1NC(=O)CN1C(=O)COc2ccc(Cl)cc21 returned Sa RN4220 lethal 1.1, ugtP null kill 2, Autofluor counter 4175, Mtb hypoxia inh -14, PrP UTR inh -20, BJeLR viability -10 and Mtb hypoxia inh growth 0.
`CCOC(=O)C1=C(COC(=O)/C=C/c2cccc(OC)c2)NC(=O)NC1C` (stereo unspecified) gave Sa RN4220 lethal 4.0, ugtP null kill -1, Autofluor counter 4620, Mtb hypoxia inh 13, PrP UTR inh -15, BJeLR viability -2 and Mtb hypoxia inh growth 15.
For Cn1c(=O)oc2cc(S(=O)(=O)N3CCN(Cc4ccc5c(c4)OCO5)CC3)ccc21 the results were Sa RN4220 lethal 3.3, ugtP null kill -11, Autofluor counter 9284, Mtb hypoxia inh 15, PrP UTR inh -23, BJeLR viability -8 and Mtb hypoxia inh growth 6.

The list goes on (2 carried over from the part before).
`CCOC(=O)C1=C(COC(=O)/C=C/c2cccc(OC)c2)NC(=O)NC1C` (stereo unspecified) gave Sa RN4220 lethal 4.0, ugtP null kill -1, Autofluor counter 4620, Mtb hypoxia inh 13, PrP UTR inh -15, BJeLR viability -2 and Mtb hypoxia inh growth 15.
For Cn1c(=O)oc2cc(S(=O)(=O)N3CCN(Cc4ccc5c(c4)OCO5)CC3)ccc21 the results were Sa RN4220 lethal 3.3, ugtP null kill -11, Autofluor counter 9284, Mtb hypoxia inh 15, PrP UTR inh -23, BJeLR viability -8 and Mtb hypoxia inh growth 6.
Screening Cc1nn(Cc2ccccc2Cl)c(Cl)c1/C=C/C(=O)OCC(=O)NC1CCS(=O)(=O)C1 (stereo unspecified) returned Sa RN4220 lethal 6.3, ugtP null kill 8, Autofluor counter 4675, Mtb hypoxia inh 8, PrP UTR inh -7, BJeLR viability 4 and Mtb hypoxia inh growth -5.
`Cc1ccc(S(=O)(=O)Nc2c(C)nn(C)c2C)cc1C` gave Sa RN4220 lethal 3.9, ugtP null kill 4, Autofluor counter inconclusive, Mtb hypoxia inh 5, PrP UTR inh -13, BJeLR viability -7 and Mtb hypoxia inh growth 1.
`COc1cccc(OC)c1OCCCCc1c(C)n[nH]c1C` gave Sa RN4220 lethal 13, ugtP null kill -1, Autofluor counter 3161, Mtb hypoxia inh 16, PrP UTR inh -28, BJeLR viability 2 and Mtb hypoxia inh growth 9.
For CCc1nc2nc(C)c(NS(=O)(=O)c3ccc(Br)s3)c(=O)n2[nH]1 the results were Sa RN4220 lethal 0.5, ugtP null kill 8, Autofluor counter 2759, Mtb hypoxia inh 3, PrP UTR inh -4, BJeLR viability -10 and Mtb hypoxia inh growth 7.
COc1ccc(-c2[nH]ncc2CN2CCSCC2)c(OC)c1 was read as Sa RN4220 lethal 5.2, ugtP null kill 7, Autofluor counter 4308, Mtb hypoxia inh 7, PrP UTR inh 26, BJeLR viability 11 and Mtb hypoxia inh growth 0.
Cc1ccc(C(=O)CS(C)(=O)=O)cc1 was read as Sa RN4220 lethal 3.5, ugtP null kill 1, Autofluor counter 3407, Mtb hypoxia inh 0, PrP UTR inh -19, BJeLR viability -4 and Mtb hypoxia inh growth 4.
For Cc1csc(NC(=O)C(C)N2C(=O)c3ccccc3S2(=O)=O)n1 (stereo unspecified) the results were Sa RN4220 lethal 0.8, ugtP null kill -1, Autofluor counter 5271, Mtb hypoxia inh 1, PrP UTR inh -16, BJeLR viability -4 and Mtb hypoxia inh growth 4.
For Cn1ncc([N+](=O)[O-])c1C(=O)Nc1nccs1 the results were Sa RN4220 lethal 4.7, ugtP null kill -5, Autofluor counter 2559, Mtb hypoxia inh 8, PrP UTR inh -52, BJeLR viability -13 and Mtb hypoxia inh growth 7.
For COc1ccc(-c2nc(SC)n(C)c(=O)c2C#N)cc1OC the results were Sa RN4220 lethal 0.6, ugtP null kill -3, Autofluor counter 4935, PrP UTR inh -19 and BJeLR viability -2.
COc1ccc([C@@H]2[C@@H]3C(=O)N(C(C)(C)C)C(=O)[C@@H]3[C@]3(Cc4ccccc4)C(=O)N(c4cccc(Cl)c4)C(=O)N23)cc1 was read as Autofluor counter 2953, PrP UTR inh -23 and BJeLR viability 2.
For CC(C)NC(=O)CN(Cc1ccc(F)cc1)C(=O)CCC(=O)Nc1nccs1 the results were Sa RN4220 lethal 4.5, ugtP null kill 1, Autofluor counter 3903, Mtb hypoxia inh -2, PrP UTR inh -22, BJeLR viability -14 and Mtb hypoxia inh growth 8.
Screening CCOC(=O)C1C(c2ccccc2O)NC(=O)NC1(O)C(F)(F)F (stereo unspecified) returned Sa RN4220 lethal 6.8, ugtP null kill -3, Autofluor counter 3336, Mtb hypoxia inh 9, PrP UTR inh -6, BJeLR viability -2 and Mtb hypoxia inh growth 0.
CCC(C)=NNc1cccc([N+](=O)[O-])c1 was read as Sa RN4220 lethal -6.3, ugtP null kill 3, Mtb hypoxia inh 8 and Mtb hypoxia inh growth 7.
For CSc1nnc(NC(=O)c2nc(S(=O)(=O)Cc3ccccc3)ncc2Cl)s1 the results were Autofluor counter 5718, PrP UTR inh -15 and BJeLR viability 6.
For COc1ccc(CCN=C(NS(=O)(=O)c2ccccc2)c2ccccc2)cc1OC the results were Autofluor counter 4037, PrP UTR inh -13 and BJeLR viability 4.
For NC(=S)N=Nc1c(O)n(Cc2ccc(Br)cc2)c2ccccc12 the results were Autofluor counter 2084, PrP UTR inh -14 and BJeLR viability 22.
For CSc1ccc(/C=C2\NC(=O)NC2=O)cc1 the results were Sa RN4220 lethal 4.4, ugtP null kill 6, Autofluor counter inconclusive, Mtb hypoxia inh 2, BJeLR viability -2 and Mtb hypoxia inh growth 10.
CC(C#Cc1c([C@@H](C)Oc2ccccc2)nnn1Cc1ccccc1)Oc1ccccc1 (stereo partly specified) was read as Autofluor counter 3472, PrP UTR inh -9 and BJeLR viability 4.
`CSC1=NCCN1C(=O)c1cccc(Br)c1` gave Sa RN4220 lethal 1.2, ugtP null kill 1, Autofluor counter 3802, PrP UTR inh -6 and BJeLR viability 1.
Cc1ccc(Nc2c(-c3ccc(N(C)C)cc3)nc3ncccn23)cc1 was read as Sa RN4220 lethal 2.9, ugtP null kill 5, Autofluor counter 4962, Mtb hypoxia inh -5, PrP UTR inh -16, BJeLR viability -7 and Mtb hypoxia inh growth -1.
For CCN(CC)S(=O)(=O)c1ccc(N2CCOCC2)c(NC(=O)c2cc(-c3ccccn3)nc3ccccc23)c1 the results were Sa RN4220 lethal -5.7, ugtP null kill 7, Autofluor counter 4604, Mtb hypoxia inh -9, PrP UTR inh 66*, BJeLR viability 8 and Mtb hypoxia inh growth 8.

Assay outcomes (PubChem BioAssay)
